VCAM-1 rise: boosters of cytokine-driven VCAM-1 levels – cell-based, plate reader, pooled HUVEC, TNFa stimulus (AID 455). 10,000 tested, 0.2% active. augmentation, % at 5 µM. HUVEC TNFa-induced VCAM-1 immunofluorescence, plate reader; numbers were filed only for top-ranked candidate wells;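 active = a compound raising TNF-alpha-driven VCAM-1 surface staining, with its hit status upheld on visual or statistical review; inactive = the rest, including hits rejected on review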;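 note: 0% = TNFa with vehicle and 100% = strongest image-checked hit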
26S disassembly: blocks ATP-dependent breakdown of the yeast 26S proteasome; AID 751; anti-FLAG beads, GFP-proteasome disassembly, flow cytometry; 24,000 tested, 0.2% active; inhibition of disassembly, % (test concentration not listed);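 active = above 40%; inconclusive = likely self-fluorescent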;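 note: plate controls were ATP control with full disassembly for no effect and ATP-gamma-S intact proteasomes for full effect; higher percent means more bead fluorescence retained so stronger block of disassembly; stock transfer was 100 nL into about 10 µL; wells with too few beads may also be inconclusive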
Starred values were filed as active, the others as inactive; i = inactive; ? = inconclusive; · = no result given. These rows are one share of the data; rates above refer to the full screens.

Values in the order – 26S disassembly	VCAM-1 rise
> COCCNC(=O)C1c2ccccc2C(=O)N(CCOC)C1c1ccc(F)cc1 (stereo not given)
  -1.7	·
> COc1ccc(CNC(=O)Cc2nn(C)c(=O)c3ccccc23)cc1
  -0.7	·
> COc1cc(OC)cc(C(=O)N2c3ccc(F)cc3CCC2C)c1 (stereo not given)
  1.6	i
> COc1ccc(CN2C(=O)c3cccnc3C2Nc2ccc(OC)c(Cl)c2)cc1 (stereo not given)
  -1.6	·
> CCOC(=O)N1CCC(Nc2nc3ccccc3n3nnnc23)CC1
  3.8	·
> COC(=O)C1C(=O)C2=C(CC1C)NC(C)=C(C(=O)OC1CCCCC1)C2c1ccc(N(C)C)cc1 (stereo not given)
  6.4	·
> Cc1nc(SCc2cccc(F)c2)[nH]c(=O)c1C#N
  -4.7	·
> O=C(NCc1cccs1)C1CCN(S(=O)(=O)c2cccc3nsnc23)CC1
  1.5	·
> CCOC(=O)c1cc2c(=O)[nH]ccc2nc1C
  -1.5	·
> COc1ccc(C(=O)Nc2ccc(S(=O)(=O)NC(C)=O)cc2)cc1
  -2.0	i
> Cc1ccc(S(=O)(=O)NCCOC(=O)Nc2sc(=S)n(C)c2C)cc1
  -1.2	i
> CCC1CCCCN1CCCNC(=O)CC1Oc2ccccc2NC1=O (stereo not given)
  3.5	·
> CC(CCc1ccccc1)NC(=O)CSc1nc(N)cc(N)n1 (stereo not given)
  2.8	i
> c1ccc(-c2oc3ncnc(NCCN4CCOCC4)c3c2-c2ccccc2)cc1
  -0.3	i
> CCC1Oc2ccccc2N(CC(=O)NCCN2CCc3ccccc3C2)C1=O (stereo not given)
  1.4	·

The listing continues:
Values in the order – 26S disassembly	VCAM-1 rise
> Cc1cccc(C2c3c(n(C)c(=O)n(C)c3=O)N=C3c4ccccc4C(=O)C32)c1 (stereo not given)
  2.4	i
> CCOCCn1cnc2sc(C(=O)NCC(=O)OCC)c(C)c2c1=O
  -0.4	i
> Cc1nn(C)c(C)c1S(=O)(=O)N1CCCC(C(=O)N2CCN(c3ccc(Cl)cc3)CC2)C1 (stereo not given)
  0.5	i
> S=C(NCC1CCCO1)n1nnc2ccccc21 (stereo not given)
  -1.5	i
> O=C(NC1CCCCCC1)C1CCCN1S(=O)(=O)c1cccc2cccnc12 (stereo not given)
  -1.6	·
> O=C(COc1ccc(S(=O)(=O)NC2CCCCC2)cc1)Nc1ccc2c(c1)OCCO2
  -1.5	·
> COC(=O)CN1C(=O)C2(C(C#N)=C(N)Oc3c2c(C)nn3-c2ccccc2)c2ccccc21 (stereo not given)
  -1.2	i
> CCCc1cc(C(=O)Nc2sc(C)c(C)c2C(=O)OCC)no1
  -0.4	i
> Cc1ccccc1C1CC(c2ccccc2)Nc2ncnn21 (stereo not given)
  -0.1	i
> COc1ccc(NC(=O)CN2CC(c3ccccc3)CC2=O)cc1OC (stereo not given)
  0.7	·
> CC1CCCCN1c1nnc(NC(=O)Cn2c(=O)oc3ccccc32)s1 (stereo not given)
  1.3	·
> COc1ccc(NC(=O)CSc2c(C)nn(-c3nnc(C)c(=O)[nH]3)c2C)cc1
  -0.8	i
> CCN(c1ccccc1)S(=O)(=O)c1ccc(F)cc1C
  1.8	i
> CCOc1ccc(C2c3c(oc4cc(C)c(C)cc4c3=O)C(=O)N2CCCN(C)C)cc1OC (stereo not given)
  -0.2	·
> CC1(C)CC(=O)c2cc(C(=O)NC3CCSC3=O)c(=O)n(-c3ccccc3)c2C1 (stereo not given)
  0.0	·

Next part.
Values in the order – 26S disassembly	VCAM-1 rise
> C/C(Cl)=C\Cn1c(NCCc2ccccc2)nc2c1c(=O)n(C)c(=O)n2C
  1.6	i
> COc1ccc(C2C(C(=O)O)c3ccccc3C(=O)N2C)cc1Br (stereo not given)
  -0.2	·
> Cc1cc(C)n(-c2ncc(-c3ccccc3)nn2)n1
  -1.2	·
> Cc1ccc(NC(=O)CN(C)S(=O)(=O)c2cnc[nH]2)cc1C
  -0.1	·
> O=C(Nc1ccccc1)N(Cc1cccnc1)Cc1ccco1
  -1.3	i
> Cc1c(C(=O)Nc2ccc(C(=O)O)cc2)cnn1C
  0.5	·
> Cc1ccccc1-n1c(Cn2c(=O)sc3ccccc32)nnc1SC(C)C
  -0.5	·
> CCCCNC(=O)CCn1c(=O)c2ccccc2n(CC(=O)N2CC(C)CC(C)C2)c1=O (stereo not given)
  -1.2	·
> Cc1ccc(S(=O)(=O)N(CC(=O)O)Cc2ccccc2)cc1
  3.1	·
> O=C(CSC1=NC(=O)C(Cc2ccccc2)C(=O)N1)NC1CCCCC1 (stereo not given)
  0.0	i
> CCOC(=O)C(C)Sc1nnc(Cc2cc(=O)[nH]c(=O)[nH]2)n1-c1ccc(OCC)cc1 (stereo not given)
  -0.5	·
> CCOC(=O)c1ccc(NS(=O)C23CC4CC(CC(C4)C2)C3)cc1 (stereo not given)
  0.3	i
> N#C[C@@H]1[C@@H]2C(=O)N(c3ccc4c(c3)OCCO4)C(=O)[C@@H]2C2c3ccccc3C=CN21 (stereo not given in full)
  6.4	i
> Cc1ccc(C(=O)CCC2CCCC2=O)cc1 (stereo not given)
  0.3	i
> O=C1NC(c2cccs2)Nc2ccccc21 (stereo not given)
  0.6	i

Arranged by the number under 26S disassembly (high to low): six from the list above.
SMILES	26S disassembly	VCAM-1 rise
N#C[C@@H]1[C@@H]2C(=O)N(c3ccc4c(c3)OCCO4)C(=O)[C@@H]2C2c3ccccc3C=CN21 (stereo not given in full)	6.4	i
C/C(Cl)=C\Cn1c(NCCc2ccccc2)nc2c1c(=O)n(C)c(=O)n2C	1.6	i
CCOC(=O)c1ccc(NS(=O)C23CC4CC(CC(C4)C2)C3)cc1 (stereo not given)	0.3	i
Cc1ccccc1-n1c(Cn2c(=O)sc3ccccc32)nnc1SC(C)C	-0.5	·
Cc1cc(C)n(-c2ncc(-c3ccccc3)nn2)n1	-1.2	·
O=C(Nc1ccccc1)N(Cc1cccnc1)Cc1ccco1	-1.3	i

(cont.)
Values in the order – 26S disassembly	VCAM-1 rise
> COc1cccc(NC(=O)C2CCN(c3ncccn3)CC2)c1
  0.3	i
> CCOC(=O)c1ccc(Oc2nc(NC(C)(C)C)nc(N(C)C)n2)cc1
  5.5	·
> CCCC1(CCC)NC(=O)NC1=O
  -0.6	i
> CCCCOc1ccc(C(=O)Oc2ccc(C)nc2)cc1
  -0.4	·
> CCCN(CCC)C(=O)CSc1nc2n[nH]c(C)c2c(=N)n1-c1ccc(OCC)cc1
  -0.5	·
> CCCCN(CCCC)S(=O)(=O)c1ccc(C(=O)Nc2nnc(COC)o2)cc1
  -0.6	·
> COc1ccccc1-c1cc(C(=O)NCc2ccc(F)cc2)no1
  1.6	·
> Cc1cccc(CCNS(=O)(=O)c2cnc[nH]2)c1
  2.9	·
> O=C(c1ccc2c(c1)C(=O)N(Cc1ccco1)C2O)N1CCOCC1 (stereo not given)
  0.9	·
> COc1ccc2c(C(F)(F)F)cc(=O)oc2c1C
  -4.2	i
> COc1cccc(CNC(=O)C2CCN(Cc3cnn(-c4ccccc4)c3-n3cccc3)CC2)c1
  1.5	·
> COc1ccc(C2CC(C(F)(F)F)n3nc(C(=O)N(C)Cc4cn(C)nc4C)c(Cl)c3N2)cc1 (stereo not given)
  1.8	·
> Cn1cccc1Cc1nnc(SCC(=O)Nc2nc3ccccc3s2)n1CCc1ccccc1
  0.1	·
> NC(=O)CSC1=Nc2ccccc2C2=NC(CC(=O)NCc3cccs3)C(=O)N12 (stereo not given)
  -0.8	·
> Cc1onc(-c2ccccc2Cl)c1C(=O)NC1CCS(=O)(=O)C1 (stereo not given)
  0.8	·

Following part:
Values in the order – 26S disassembly	VCAM-1 rise
> COC(=O)c1ccc(Sc2ccc(C)cc2)c(N)c1
  -0.9	·
> CC(C)CNS(=O)(=O)c1ccc(OCC(=O)Nc2ccc3c(c2)OCO3)c(Cl)c1
  0.7	i
> COc1ccc(NC(=O)CC2Sc3ncnn3C2=O)cc1 (stereo not given)
  1.3	i
> CCCOc1ccc(N2C(=O)CC(N3CCN(c4ccccc4OC)CC3)C2=O)cc1 (stereo not given)
  2.0	·
> CSc1nc2n(n1)C(c1cc(Br)ccc1F)C(C(=O)N(C)C)=C(C)N2 (stereo not given)
  -0.4	·
> O=C(CSC1=Nc2ccccc2C2=NC(CC(=O)NC3CCCCC3)C(=O)N12)NCc1ccco1 (stereo not given)
  1.5	·
> Cc1cc(C)n(Cc2cccc(F)c2)c(=O)c1C#N
  -0.5	·
> COc1ccc(N2C(=O)CCC(C(=O)Nc3ccccn3)C2c2ccc(OC)c(OC)c2)cc1 (stereo not given)
  0.4	·
> O=C(Nc1cccc(NC(=O)c2cccnc2)c1)c1cccnc1
  -2.0	i
> Cc1ccc2c(c1)NC(=O)C(CC(=O)NCc1ccc(F)cc1)O2 (stereo not given)
  -2.2	·
> CC(C)Cn1cc(C(=O)NCc2cccs2)c2c3ccccc3n(C)c2c1=O
  -3.2	·
> O=C(NCc1cccs1)c1ccc2c(c1)ncn2C1CCCC1
  0.0	·
> COc1ccc(OC)c2[nH]c(=O)c(CCNC(=O)c3ccc(S(=O)(=O)N4CCCCC4)cc3)cc12
  2.1	·
> CCCCn1cnc2c(c1=O)c1nc3ccccc3nc1n2Cc1ccc2c(c1)OCO2
  11	i
> COc1cc2c(cc1OC)C1=C(C#N)CN(C3CCCCC3)CN1CC2
  -0.4	·

A few values from the results shown.
`CCCCn1cnc2c(c1=O)c1nc3ccccc3nc1n2Cc1ccc2c(c1)OCO2` – 26S disassembly: 11
`COc1ccc(N2C(=O)CCC(C(=O)Nc3ccccn3)C2c2ccc(OC)c(OC)c2)cc1` (stereo not given) – 26S disassembly: 0.4

Further records
Values in the order – 26S disassembly	VCAM-1 rise
> CCC(=O)NC1(C(F)(F)F)C(=O)NC(C)=C1C#N (stereo not given)
  1.0	i
> CSc1cc(C)nc(NC(C)=O)n1
  -0.1	·
> CCOc1ccc(N(CC(=O)Nc2ccc(C)cc2)S(=O)(=O)c2c(C)noc2C)cc1
  0.9	·
> COc1ccc(-c2[nH]nc3c2C(c2ccccc2OC(=O)N2CCOCC2)C(C#N)=C(N)O3)cc1 (stereo not given)
  -2.4	i
> Cc1cc(C)cc(NC(=O)CSc2nnc(Cc3cccn3C)n2-c2ccc(F)cc2)c1
  0.4	i
> COC(=O)c1ccc(C(=O)OC)c(NC(=O)Nc2ccc3c(c2)OCO3)c1
  1.9	i
> CC(=O)N1CCC2(CC1)CC(=O)c1cc(OCC(=O)NCc3ccc(C)cc3)ccc1O2
  0.6	i
> Cc1cc(NCCN2CCCCC2)n2c(nc3ccccc32)c1C#N
  1.0	i
> CCn1cnc2sc(C(=O)N(Cc3ccc(N(C)C)cc3)Cc3ccco3)c(C)c2c1=O
  0.6	·
> Cn1c(=O)c2c(-c3ccccc3)n(-c3ccccc3O)cc2n(C)c1=O
  -1.0	·
> O=C(CCN1C(=O)C2C3C=CC(C3)C2C1=O)Nc1ccc2c(c1)OCO2 (stereo not given)
  -1.1	·
> O=C(c1cc(-c2ccncc2)nc2ccccc12)N1CCN(c2ccc(N3CCOCC3)nn2)CC1
  -1.4	·
> Nc1nc(-c2ccc(Cl)cc2)nn1C(=O)c1cccnc1
  -2.5	i
> Cc1ccc2c(c1)NC(=O)C(CC(=O)O)O2 (stereo not given)
  0.5	·
> CC1=C(C(=O)NC(C)c2ccc3c(c2)OCCO3)C2(CCC(C)CC2)OC1=O (stereo not given)
  0.3	·

Additional structures:
Values in the order – 26S disassembly	VCAM-1 rise
> CCOC(=O)N1CCC(NC(=O)c2cc(C)c3c(C)nn(-c4ccccc4)c3n2)CC1
  -0.5	·
> CC(C)NCC(O)COc1c(F)cc(Br)cc1F (stereo not given)
  -0.5	·
> CCOc1ccc(S(=O)(=O)N2CCN(Cc3ccccc3)CC2)c2cccnc12
  -1.5	·
> COc1cc(NC2c3ccccc3C(=O)N2c2ccc(C)cn2)cc(OC)c1OC (stereo not given)
  0.9	i
> COc1ccc(CC(=O)NCc2cn3ccsc3n2)cc1
  -0.6	·
> CC1=C(C)CC(C(=O)c2ccccc2)C(C(=O)O)C1 (stereo not given)
  0.2	·
> CCn1cc(S(=O)(=O)CC(=O)Nc2ccc(C)cc2)c2ccccc21
  -2.0	·
> C[C@]12CC[C@@H]3c4ccc(O[C@@H]5O[C@H](C(=O)O)[C@@H](O)[C@H](O)[C@H]5O)cc4CC[C@H]3[C@@H]1C[C@@H](O)[C@@H]2O
  -0.2	i
> CC(CCc1ccccc1)NC(=O)c1ccc(Br)o1 (stereo not given)
  ?	i
> Cc1cc2nc(C)n(CCCN)c2cc1C
  0.7	·
> COc1ccc(OC)c(CCNC(=O)CN2C(=O)CC(C)(C)S(=O)(=O)c3ccccc32)c1
  0.4	·
> CCOCCCNC(=O)C1CCN(S(=O)(=O)N(CC(C)C)CC(C)C)CC1
  0.5	i
> Cc1cc(C)n(Cc2nc3ccccc3n2C)n1
  -3.4	i
> Cc1cc2ccccc2c(=O)n1CC(=O)NC1CCCCCC1
  -0.2	·
> Cc1ccnc(NS(=O)(=O)c2ccc(NC(=O)C3CCCNC3=O)cc2)n1 (stereo not given)
  -0.4	·

Further records
Values in the order – 26S disassembly	VCAM-1 rise
> COC(=O)c1sc2ccccc2c1NC(=O)c1cccs1
  -1.2	i
> C=CCn1c(/N=C/c2ccc(N(C)C)cc2)nc2ccccc21
  -0.3	·
> O=C(N1CCN(Cc2ccccc2)CC1)C12CC3CC(CC(C3)C1)C2
  -2.3	i
> CC(C)(CC(=O)N1CCN(c2ccc(Cl)cc2)CC1)CC1=NS(=O)(=O)c2ccccc2N1
  ?	·
> O=C(NCc1ccc(Cl)cc1)c1cc(-c2ccco2)on1
  -0.6	·
> Cn1c(Cn2c(=O)sc3ccccc32)nnc1SCC(=O)NCC1CCCO1 (stereo not given)
  -2.6	·
